KCNQ2 enhance – enhances the rat KCNQ2 potassium channel; 310,000 tested, 0.54% active; O88943; CHO-K1 KCNQ2, FluxOR thallium flux fluorescence; active compounds read high; B-score at 10 µM;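 active means fluorescence ratio B-score at least 3 SD of library B-scores, with initial fluorescence B-score within 3 SD, cut at about 5.3 in these data; same plate scores as AID 2156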;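 further: B-score of peak minus minimum over baseline fluorescence ratio after K+ and Tl+ stimulus; positive B-score means potentiation of KCNQ2 with more thallium influx and brighter signal; only the inactives scoring about 0 or higher are listed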
Target sequence (O88943 whole entry, looked up): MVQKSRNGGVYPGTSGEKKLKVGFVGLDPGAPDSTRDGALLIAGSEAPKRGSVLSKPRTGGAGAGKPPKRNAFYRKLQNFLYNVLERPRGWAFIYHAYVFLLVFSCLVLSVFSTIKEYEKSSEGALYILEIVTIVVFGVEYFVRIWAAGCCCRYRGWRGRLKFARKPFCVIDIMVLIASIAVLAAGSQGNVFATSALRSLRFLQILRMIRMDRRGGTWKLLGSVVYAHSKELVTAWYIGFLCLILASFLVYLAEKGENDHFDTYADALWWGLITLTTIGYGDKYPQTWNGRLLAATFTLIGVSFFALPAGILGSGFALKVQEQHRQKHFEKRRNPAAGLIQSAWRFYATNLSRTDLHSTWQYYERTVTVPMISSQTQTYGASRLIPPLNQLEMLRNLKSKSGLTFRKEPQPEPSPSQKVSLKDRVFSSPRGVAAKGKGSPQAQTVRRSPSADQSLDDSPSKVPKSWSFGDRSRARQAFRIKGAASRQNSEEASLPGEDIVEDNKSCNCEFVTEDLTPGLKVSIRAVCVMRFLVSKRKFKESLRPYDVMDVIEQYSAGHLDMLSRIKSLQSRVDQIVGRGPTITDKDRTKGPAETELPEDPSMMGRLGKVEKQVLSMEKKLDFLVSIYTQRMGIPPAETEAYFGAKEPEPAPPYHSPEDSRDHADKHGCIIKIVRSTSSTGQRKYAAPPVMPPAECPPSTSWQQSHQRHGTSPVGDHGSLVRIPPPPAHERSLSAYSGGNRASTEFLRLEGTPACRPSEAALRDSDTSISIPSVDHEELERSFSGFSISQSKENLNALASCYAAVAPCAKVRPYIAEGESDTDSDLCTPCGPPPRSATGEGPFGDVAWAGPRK
KCNQ2 enhance baseline – recorded beside KCNQ2 enhance, whose call it bears; B-score; compound at 10 µM; measured here: initial fluorescence intensity artifact check;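 brightness before thallium and not channel activity; 0 = typical well and far values either way flag optical interference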
Active calls of the source: *. This is a subset; rates above refer to the full screens.

SMILES	KCNQ2 enhance	KCNQ2 enhance baseline
Cc1cc(=O)[nH]c(SCc2cc(=O)n3nc(C)sc3n2)n1	1	0.43
O=C(CNC(=O)c1ccco1)OCC(=O)c1ccc2c(c1)CCCC2	0.04	0.23
Cc1cc(C)c2nc(NC(=O)c3cc(C)on3)sc2c1	4.1	-0.02
Cc1ccc(CNC(=O)c2cccnc2)cc1	0.55	0.1
CCCOc1ccc(/C=N/NC(=O)c2ccc3c(c2)OCO3)c(OCCC)c1	0.08	-0.43
COc1ccc(CCNC(=O)c2cccnc2Cl)cc1OC	0.38	1.6
Cc1c(NC(=S)NC(=O)c2ccc(Cl)cc2)c(=O)n(-c2ccccc2)n1C	0.6	1.1
COC(=O)NCC(c1ccco1)N1CCN(c2ccc(F)cc2)CC1 (configuration not stated)	1.2	0
CCN1CCN(C(c2ccccn2)c2c(NC(=O)c3ccccc3)sc(C)c2C)CC1 (configuration not stated)	1.6	0.05
COc1cc(NS(=O)(=O)c2ccc(NC(=O)Cc3ccccc3)cc2)nc(OC)n1	0.33	2.1
CN1CCN(CCCC(=O)c2ccc(C3CCCC3)cc2)CC1	0.25	3.7
CCOCCn1c(SCC(=O)OCc2ccccc2)nc2c1c(=O)[nH]c(=O)n2C	0.1	0.77
O=C1Nc2cc(C(=O)N3CCN(c4ccccn4)CC3)ccc2S/C1=C\c1ccccc1	0.32	2.2
COc1cccc(NC(=O)CSC(N)=O)c1	0.14	1.2
COc1cc(OC)cc(C(=O)OCC(=O)NCc2ccc3c(c2)OCO3)c1	0.4	0.92
CCCCn1c(-c2ccccc2)nc2c(=O)n(C)c(=O)[nH]c21	0.05	1.5
Cc1cccc(NC(=O)CN2C(=O)N/C(=C/c3ccc(C)o3)C2=O)c1	0.41	0.81
CCOc1ccccc1N1CCN(CC(=O)NC(C)c2ccccc2)CC1 (configuration not stated)	0.9	0.81
CSc1ccc(/C=C/C(=O)N2CCCN(C)CC2)cc1	0.08	-1.3
CC12CCC(C(=O)NCc3ccc4c(c3)OCO4)(C(=O)C1=O)C2(C)C (configuration not stated)	0.07	-0.17
COc1ccc(CN2CCCC(CNC(=O)c3ccc(F)cc3)C2)c(C)c1C (configuration not stated)	0.26	-3.5
CCNC(=O)COC(=O)Cc1ccc(Cl)cc1Cl	0.04	0.8
CCCC1CC(CCc2ccccc2)OS(=O)(=O)N1 (configuration not stated)	0.18	-0.43
CCO/C(C)=C1/SC(=S)NC1=O	0.72	0.49
COc1ccc(NC(=O)CN(C)C(=O)c2ccc(N3CCCCC3)c([N+](=O)[O-])c2)cc1	0.47	0.06

(cont.)
SMILES	KCNQ2 enhance	KCNQ2 enhance baseline
Cc1ccc(Nc2c([N+](=O)[O-])c(=O)n(C)c3ccccc23)cc1	0.13	-0.23
Cc1cc(C)c(-n2nnnc2SCC(=O)c2cc3ccccc3o2)c(C)c1	0.84	-0.62
COc1ccc(CNC(=O)CN(CC2CCCO2)C(=O)CNS(=O)(=O)c2ccc(F)cc2)cc1 (configuration not stated)	0.56	-0.42
NC(=O)c1c(NC(=O)c2cccnc2)sc2c1CCCC2	1.1	0.35
Cc1cc2nc3n(c2cc1C)CC1CC(C(=O)NCc2ccco2)N(C)C31 (configuration not stated)	0.39	-0.2
CC(=O)c1ccc(OC(=O)CCc2ccccc2)cc1	0.48	0.56
CC(C)c1nnc(NC(=O)C2CCN(C(=O)Nc3ccc(Cl)cc3)CC2)s1	0.69	-1.1
CCN(CC)S(=O)(=O)c1ccc(Cl)c(NC(=O)CSc2cccc[n+]2[O-])c1	1.7	0.05
O=C1CC(NS(=O)(=O)c2cccs2)CN1c1cccc(F)c1 (configuration not stated)	1.2	-0.81
O=[N+]([O-])c1ccc(S(=O)(=O)Nc2nnc(C(F)(F)F)s2)cc1	0.48	0.2
O=c1c2ccccc2ncn1CCOc1ccccc1[N+](=O)[O-]	0.87	-0.98
Cn1c(/C(C#N)=C(\O)CN2CCN(Cc3ccccc3)CC2)nc2ccccc21	0.11	0.82
CC(=O)c1csc(COc2ccc(Cl)cc2)n1	0.71	0.01
Cc1cc(N/N=C/c2ccncc2)c([N+](=O)[O-])cc1[N+](=O)[O-]	0.43	-1.3
Fc1ccc(-c2csc(N3CCOCC3)n2)cc1	1.5	-1.7
CCc1ccc(NC(=S)NCc2ccccc2)cc1	0.74	-0.02
CC1CCN(C(=O)c2ccccc2NC(=O)Cc2ccccc2)CC1	0.76	0.02
O=C(Nc1ccc2c(c1)CN(Cc1ccccc1O)CC2)C1CCCO1 (configuration not stated)	2.3	-0.09
Cc1ccc(S(=O)(=O)NC2CC2)cc1	2.9	1.9
COc1ccc(Nc2nc(NCC3CCCO3)nc(N)c2[N+](=O)[O-])cc1 (configuration not stated)	0.97	-0.14
O=c1cc(Cn2nnc(-c3ccc(Cl)cc3)n2)nc2sccn12	0.72	-0.04
COc1ccc2[nH]c(O)c(N=NC(=O)Cc3cccs3)c2c1	0.41	-0.1
CCN1CCN(C(c2nnnn2Cc2ccc3c(c2)OCO3)C(C)C)CC1 (configuration not stated)	1.1	-1.3
CC(C)C(NS(=O)(=O)c1cccs1)C(=O)NCc1ccccc1 (configuration not stated)	0.75	0.25
COCCNC(=O)Cn1c(=O)n(Cc2ccco2)c(=O)c2ccccc21	1.1	0.38

Shown bar-delimited: part of the list above
SMILES | KCNQ2 enhance | KCNQ2 enhance baseline
Cn1c(/C(C#N)=C(\O)CN2CCN(Cc3ccccc3)CC2)nc2ccccc21 | 0.11 | 0.82
Cc1c(NC(=S)NC(=O)c2ccc(Cl)cc2)c(=O)n(-c2ccccc2)n1C | 0.6 | 1.1

One compound at a time, as listed above:
CCO/C(C)=C1/SC(=S)NC1=O is entered as KCNQ2 enhance = 0.72; KCNQ2 enhance baseline = 0.49
Cc1ccc(S(=O)(=O)NC2CC2)cc1 is entered as KCNQ2 enhance = 2.9; KCNQ2 enhance baseline = 1.9
O=C(Nc1ccc2c(c1)CN(Cc1ccccc1O)CC2)C1CCCO1 (configuration not stated) is entered as KCNQ2 enhance = 2.3; KCNQ2 enhance baseline = -0.09

(listing goes on)
SMILES	KCNQ2 enhance	KCNQ2 enhance baseline
CCCCN1C(=O)c2ccc(C(=O)Nc3cccc(C)c3C)cc2C1=O	1.2	1
CCN(CC)S(=O)(=O)c1ccc(N2CCOCC2)c(NC(=O)c2ccc(NC(C)=O)cc2)c1	0.24	-1.2
Cc1csc(NC(=O)C2CCCN(S(=O)(=O)c3cccnc3)C2)n1 (configuration not stated)	0.34	1.7
O=C(Cc1ccc(Cl)cc1)NN1C(=O)c2ccccc2C1=O	2.1	0.35
O=C(O)c1ccc(S(=O)(=O)NCC2CCCO2)cc1 (configuration not stated)	0.18	-0.83
Cc1ccc(CC(=O)O/N=C(\N)c2cccc([N+](=O)[O-])c2)cc1	1.9	2.2
Nc1nc(N)c2[nH]c(-c3ccccc3)nc2n1	1.2	-0.2
CCC(C)C(NC(C)=O)C(=O)NC(=O)NC(c1ccccc1)c1ccccc1 (configuration not stated)	0.48	-2.5
COc1ccc(NC(=O)Nc2c(C)n(-c3ccccc3)c(=O)n2C)cc1OC	0.71	-0.18
O=C(OCC(=O)N1CCC(Cc2ccccc2)CC1)c1ccc[nH]c1=O	0.88	-2
Clc1ccc(-n2nnnc2CN2CCOCC2)cc1Cl	0.05	-1.2
NC(=S)NN=C1c2cc(OCCN3CCOCC3)ccc2-c2ccc(OCCN3CCOCC3)cc21	0.03	-2.3
CC(Sc1nc2ccccc2c(=O)n1C)C(=O)N(C)C1CCCCC1 (configuration not stated)	0.76	-1.2
O=C(CNC(=O)c1cccc(F)c1)OCc1cc(=O)n2cc(Br)ccc2n1	0.34	-0.87
Cc1nc(SCc2ccc(Cl)cc2)ncc1C(=O)O	0.77	-1.5
Cc1ccccc1NC1=C/C(=N\S(=O)(=O)c2ccc(C(=O)O)cc2)c2ccccc2C1=O	7.2*	-1.6*
CN(Cc1ccccc1)Cc1nc2c(c(=O)n(C)c(=O)n2C)n1Cc1ccccc1Cl	0.01	1.1
Cc1cc2nc(C)c(Cl)c(=O)n2[nH]1	0.23	-0.09
CC1CCCCN1Cc1cnc(Cl)s1 (configuration not stated)	0.04	-0.27
O=C(COC(=O)c1ccc2c(c1)S(=O)(=O)N=C1CCCCCN12)NCCc1ccc(F)cc1	0.01	0.44
O=C(Cn1cc(C(=O)c2ccco2)c2ccccc21)NC1CCCC1	0.29	2.8
CCOc1ccc(N2C(=O)CS/C2=N/NC(=O)COc2ccc3ccccc3c2)cc1	0.45	-0.33
O=C(/C=C/c1ccccc1)NC(NC(=S)Nc1cccc(O)c1)C(Cl)(Cl)Cl (configuration not stated)	3	-1.5
COc1ccc(CNC(=O)CN2C(=O)c3ccccc3C2=O)cc1	1.8	0.06
CCN(CC)CC(=O)Nc1ccc(Oc2ccc(NC(=O)CN(CC)CC)cc2)cc1	1.4	1.3

Shown with values under each structure: 5 of the compounds above.
Fields: KCNQ2 enhance	KCNQ2 enhance baseline
- Cc1ccccc1NC1=C/C(=N\S(=O)(=O)c2ccc(C(=O)O)cc2)c2ccccc2C1=O
    7.2*	-1.6*
- CN(Cc1ccccc1)Cc1nc2c(c(=O)n(C)c(=O)n2C)n1Cc1ccccc1Cl
    0.01	1.1
- Cc1cc2nc(C)c(Cl)c(=O)n2[nH]1
    0.23	-0.09
- CC1CCCCN1Cc1cnc(Cl)s1 (configuration not stated)
    0.04	-0.27
- O=C(COC(=O)c1ccc2c(c1)S(=O)(=O)N=C1CCCCCN12)NCCc1ccc(F)cc1
    0.01	0.44

New compounds follow
SMILES	KCNQ2 enhance	KCNQ2 enhance baseline
CC1=C(C(=O)Nc2ccccc2)C2(CCCCC2)C(C#N)=C(SCC(N)=O)N1	0.05	-0.21
CC1CN(C(=O)c2ccc(OC3CCN(Cc4ccccn4)CC3)cc2)CCN1C (configuration not stated)	0.6	-2.6
Cc1ccc(S(=O)(=O)N2CCC(C(=O)OCC(=O)N(CCC#N)c3ccc(F)cc3)CC2)cc1C	0.47	-0.64
COc1ccc2[nH]c(=O)c(CN(CCc3ccccc3)C(C)=O)cc2c1	0.49	1.2
CCN(CC)CCNc1c2c(c(C#N)c3nc4ccccc4n13)CCCC2	3.6	-2.2
Cc1cc(NC(=O)CSc2nc3ccccc3c(=O)n2-c2ccccc2)no1	0.14	0.25
COC(=O)c1ccc(Oc2coc3cc(OCc4cnn(-c5ccccc5)c4)ccc3c2=O)cc1	0.66	0.01
Cc1ccc2cc(CN(Cc3nnnn3C3CCCCC3)CC3CCCO3)c(=O)[nH]c2c1 (configuration not stated)	0.96	-0.06
O=C(Cc1n[nH]c(=O)[nH]c1=O)N/N=C/CCc1ccccc1	0.18	-0.46
CC(NC(N)=O)C(=O)Nc1ccc(Cl)c(S(=O)(=O)Nc2ccc(Cl)cc2)c1 (configuration not stated)	0.08	-0.44
CCCn1c2c(c(O)c(C(=O)Nc3ncccc3O)c1=O)CCCC2	1.5	1.4
CCN(Cc1ccccc1)C(=O)CCS(=O)(=O)c1ccc2c(c1)NC(=O)CO2	0.45	0.76
CC1CC(=O)Nc2ccccc2N1S(=O)(=O)c1ccc(Br)cc1 (configuration not stated)	0.14	0.11
COc1ccc(OC)c(Cc2nnc(CCC(=O)N3CCCCC3)o2)c1	1.1	0.77
Cc1nc(-c2ccccn2)sc1C(=O)Nc1ccc(Cl)c(Cl)c1	0.02	0.27
CCCCS(=O)(=O)c1sc2nc(C)cc(C)c2c1N	1.6	1.5
COC(=O)c1c(F)c(F)c(NCCO)c(F)c1F	1.4	-0.92
O=[N+]([O-])c1ccccc1CNC1CCCCCC1	0.67	0.42
O=C(COc1coc(CN2CCN(c3ccccc3F)CC2)cc1=O)N1CCc2ccccc21	1.9	-0.03
O=C(Nc1cccnc1)C12CC3CC(CC(C3)C1)C2	1.6	-0.86
NNC(=O)COc1ccccc1F	0.39	-0.59
S=C(NCc1ccco1)N1CCN(c2ccc(Cl)cc2)CC1	1.3	-3.3
Cc1c(C(=O)N2CCCCC2)nnn1-c1nonc1N	1.1	0.77
CC(=O)O[C@H]1CSC[C@H]1NC(=O)c1ccccc1	1.3	1.8
CCC12CN3CCN(CC(C3)/C1=N\NC(=O)c1ccc(F)cc1)C2	0.59	1.1

Following part
SMILES	KCNQ2 enhance	KCNQ2 enhance baseline
CC1CCCC(C)N1C(=O)COC(=O)c1ccc(O)cc1 (configuration not stated)	0.92	-1.1
Cc1ccnc(NC(=O)C2CCN(S(=O)(=O)c3ccc4ccccc4c3)CC2)c1	0.46	-0.5
O=C(O)COc1ccccc1/C=N/NC(=O)CSc1nnc(-c2ccc(Cl)cc2)n1C1CCCCC1	1.1	0.73
CC(=O)c1cccc(NC(=O)N2CCCC2C(=O)Nc2cccc(C)c2)c1 (configuration not stated)	1.2	0.33
O=S(=O)(Nc1nc2ccccc2nc1N1CCN(c2ccccc2F)CC1)c1ccc(Cl)cc1	0.62	1.7
Cc1noc(C)c1C(=O)N1CCCc2ccccc21	0.3	0.52
O=C(O)c1ccc(NS(=O)(=O)c2cccc(C(=O)Nc3ccc(Br)cc3)c2)cc1	1.3	-2.5
C#CCOCCOCCOCCNc1nc(N2CCN(C(=O)[C@H](CCC(=O)O)n3cc(C(N)CC(C)C)nn3)CC2)nc(N2CCN(C(=O)[C@H](Cc3ccc(O)cc3)n3cc(C(N)CC(C)C)nn3)CC2)n1 (some centres not stated)	1.4	-0.22
Cc1cc(SCC(=O)OCC(=O)N2CCN(C(=O)c3ccco3)CC2)c(C)cc1Br	0.81	0.19
Cc1c(NC(=O)C(C)Sc2nnc(-c3ccccc3)o2)c(=O)n(-c2ccccc2)n1C (configuration not stated)	1.8	-1.2
COc1ccc(-c2nc(C#N)c(NCc3cccnc3)o2)cc1OC	1.1	-0.94
Cc1ccc(S(=O)(=O)Nc2cccc(C(=O)NCc3ccc(S(N)(=O)=O)cc3)c2)cc1	1.6	0.25
Cc1ccc(OCC(=O)Nc2ccc3c(c2)nc(CCN2CCC(C)CC2)n3C)cc1	0.08	-0.6
CCOC(=O)C1=C(c2ccccc2)NC(=O)NC1c1ccsc1 (configuration not stated)	0.9	-1.6
CC(=O)c1ccc(NC(=O)NCc2ccc(F)cc2)cc1	0.84	0.71
